VACV mCherry inh: vaccinia inhibition (mCherry reporter); Vaccinia virus mCherry reporter infection, fluorescence; about a quarter of the inactives have no number; Potency, µM (doses to about 36.5 µM), without a hit: at the highest dose activity change, negative = inhibition, usual class: inhibitors; 310,000 compounds, 0.63% hits; AID 720579; active = well fitted inhibition curve with a large enough effect; inconclusive = small, poorly fitted or top-dose-only effect; inactive = no such curve, though single readings can be large or run the other way; tested in A549 cells; also: nearly all actives have a fitted effect of over 35% in size; inactives centre near -10
VACV Venus inh: inhibitors of vaccinia virus (Venus reporter); Vaccinia virus Venus reporter expression, fluorescence; Potency, µM (titrated, usually from 36.5 µM), inactives show at the top dose activity change, negative = inhibition, hits mostly inhibitors; 330,000 compounds, 0.46% hits; active means well fitted inhibition curve with a large enough effect; inconclusive means small, poorly fitted or top-dose-only effect; inactive means no such curve, though single readings can be large or run the other way; tested in A549 cells; also: nearly all actives have a fitted effect of over 30% in size; inactives centre near -10
Numbers without * were called inactive; i = inactive; ? = inconclusive; / = not tested or not shown; & = joins results of further samples; [ ] = another dose, or the depositor's remark. % is scaled to controls: 0 for no effect and ±100 for the full control effect; potency is read from the fitted curve at half-maximal effect.

Results follow in this order: VACV mCherry inh	VACV Venus inh
Cn1c(SCC(=O)Nc2ccc(Cl)cc2)nnc1C1CC1
 : i	-12.6%
CCN(Cc1nc2ccccc2c(=O)[nH]1)C(=O)COc1ccccc1Cc1ccccc1
 : -0.3%	-14.3%
CCC(=O)Nc1ccc(/C=C(\C(C)=O)C(=O)c2ccccc2)cc1
 : i	-19.0%
CCCCc1ccc(NC(=O)c2cccn(Cc3ccc(Cl)cc3)c2=O)cc1
 : i	?
CCN(CC)C(=O)c1ccc(S(=O)(=O)c2ccccc2)cc1
 : -5.0%	-12.6%
COP(=S)(OC)Oc1ccc(SC)c(C)c1
 : -21.1%&-16.2%	-17.3%&-15.2%
O=c1[nH]c(-c2cccs2)nc2ccccc12
 : ?	-1.6%
Cc1nc(C(F)(F)F)c(C(=O)N=CN(C)C)s1
 : -10.4%	-2.4%
CSc1ncccc1C(=O)NCC1Cc2cc(-c3cnccn3)cc(Cl)c2O1 (configuration not stated)
 : i	-12.5%
CC(C)n1c(=S)[nH]c2ccccc2c1=O
 : i	-9.4%
CCOC(=O)c1c(C)[nH]c(C)c1S(=O)(=O)N(C)CC(=O)NCc1cccc(C)c1
 : i	-11.9%
CCOC(=O)C1=C(C)Nc2ccccc2N=C1N
 : -2.2%	-3.3%
Cc1no[n+]([O-])c1COc1cccc(/C=C2\N=C(c3ccccc3)OC2=O)c1
 : -14.2%	-5.9%
CCOC(=O)C1=C[C@@]2(CC)CCCN3CCc4c(n1c1ccccc41)C32 (some centres not stated)
 : -13.4%	?
COc1ccc(Cl)cc1NC(=O)c1cnc(N2CCCCC2)c2ccccc12
 : -7.2%	-5.3%
O=C(COC(=O)/C=C/c1ccc(Cl)cc1)NCCc1ccccc1
 : i	-18.2%
CC(C)(C)C(=O)N1CCN(CCN2C(=O)c3cccc4cccc(c34)C2=O)CC1
 : -11.8%	-6.1%
CCOC(=O)Cc1csc(NS(=O)(=O)c2cc(Cl)ccc2Cl)n1
 : i	-9.5%
CCc1ccc(NC(=O)/C(C#N)=C\c2ccc(OC)c(C(=O)O)c2)cc1
 : i	-3.5%
O=S(=O)(NCC1CCCO1)c1ccc(-c2ccc(Cl)cc2)cc1 (configuration not stated)
 : -17.5%	-16.9%
CCc1ccc(-n2nnc(-c3nc(-c4cccs4)no3)c2N)cc1
 : -7.2%	-13.1%
O=C(NCc1ccco1)/C(=C/c1ccc([N+](=O)[O-])cc1)NC(=O)c1ccco1
 : 6.2%	-3.2%
Clc1ccc(CN2CCCCCCC2)cc1Cl
 : -15.2%	-13.7%
O=C(Nc1ccc2oc(-c3cccnc3)nc2c1)c1ccc2c(c1)OCCO2
 : i	-13.9%
O/N=C(\c1ccc2c(c1)OCCO2)C1CCCCC1
 : /	-17.7%
O=C(NNC(=S)NCc1ccco1)c1ccc(Cl)s1
 : -17.5%	-10.0%
Cn1nc(C(C)(C)C)cc1C(=O)N1CCCCC1c1cc(C(=O)Nc2cccc(C#N)c2)no1 (configuration not stated)
 : -14.7%	9.0%
O=C(NCCCN1CCN(CCCNC(=O)c2ccc3c(c2)OCO3)CC1)c1ccc2c(c1)OCO2
 : -10.5%	-13.8%
O=C1CC[C@@H](O)CCN1CC[C@H](Sc1ccc(Br)cc1)c1ccccc1
 : i	-14.9%&-13.0%
CCOC(=O)c1cnn2c(C)cc(-c3ccc(F)cc3)nc12
 : /	-25.7%

Going on with the list:
Results follow in this order: VACV mCherry inh	VACV Venus inh
COc1cnn(-c2ccc(Br)cc2)c(=O)c1SCc1ccccc1
 : i	-15.4%
Cc1nn(Cc2ccc(C(=O)Nc3nccs3)cc2)c(C)c1Cl
 : 0.0%	?
COc1c(Cl)ccc(Cl)c1C(=O)NCc1ccco1
 : -16.0%	-6.7%
COc1ccc(NC(=O)COc2ccc(-c3nn(C)c(=O)c4ccccc34)cc2)cc1
 : 0.8%&-8.6%	-18.6%&-19.6%
Cc1cccn2c(=O)c3cc(C(=O)NCC4CCCO4)c(=N)n(C4CCCCC4)c3nc12 (configuration not stated)
 : i	-13.1%
O=C(Nc1cccc(Cl)c1)Nc1nnc(CSCCOc2ccc(Cl)cc2)s1
 : -16.3%	?
CC(C)n1c(SCC(=O)NCc2ccco2)nc2c1c(=O)n(C)c(=O)n2C
 : -11.6%	-14.7%
Cn1c(CN2CCCCC2)nc2cc(NC(=O)c3cccs3)ccc21
 : -20.2%	-21.0%
Cc1cc(C)c2c(NC(N)=S)n[nH]c2n1
 : -11.8%	-13.8%
COc1cccc2cc(C(=O)N3CCCCC3C)c(=O)oc12 (configuration not stated)
 : /	0.7%
CCCCc1c(C)nc(N)[nH]c1=O
 : /	-6.5%
O=C(NCCCCc1ccccc1)c1cc([N+](=O)[O-])cc([N+](=O)[O-])c1
 : ?	-13.2%
O=c1n(CCCN2CCN(c3cccc(Cl)c3)CC2)nc2ccccn12
 : -0.3%&-12.9%	?
CC(C)(C)NC(=O)C1CC(=O)N(CCc2ccc(F)cc2)C1 (configuration not stated)
 : i	-5.7%
Cc1nc(SCC(=O)N2CCN(c3ccccc3)CC2)n[nH]1
 : 12.1%	-1.0%
O=S(=O)(Nc1cccc(-c2ccc(N3CCOCC3)nn2)c1)c1ccc(F)cc1F
 : -11.8%	-9.6%
N#CCCN(Cc1ccccc1)C(=O)Nc1ccc(F)cc1
 : -21.3%	5.3%
CC(C)C(=O)Nc1nnc(SCC(=O)Nc2ccc3c(c2)OCO3)s1
 : -24.7%	-6.0%
COCCCNC(=O)NC(CCC(C)C)c1c(-n2cccc2)sc2c1CCN(C)C2 (configuration not stated)
 : -12.2%	-11.3%
COc1ccc(OC)c(/C=C/C(=O)N(C)CC(=O)Nc2ccc(N3CCOCC3)cc2)c1
 : -2.3%	-14.9%
COc1ccc(-n2ncc3c(N4CCCCC4)ncnc32)cc1
 : -18.9%	-23.1%
COC(=O)C(Cc1ccccc1)NC(=S)NC(=O)c1ccccc1 (configuration not stated)
 : i	-3.4%
CCOc1ccc(S(=O)(=O)Nc2ccc(C(=O)NNC(=O)c3ccncc3)cc2)cc1
 : -1.3%	-6.2%
COc1cccc(-n2c(=O)c3sc4ccccc4c3n(CC(=O)Nc3ccccc3C)c2=O)c1
 : 2.4%	-6.0%
CN(C)n1cnc2ccsc2c1=O
 : 0.2%	-3.3%
O=C(CN1CCN(Cc2ccc(Cl)cc2)C1=O)NCCCN1CCOCC1
 : i	-6.3%
CN(C)/C(=N\OC(=O)c1ccccc1)c1nonc1N
 : -7.6%	-0.7%
COCCNC(=O)CCCn1c(=O)c2ccccc2n(CC(=O)NCCC2=CCCCC2)c1=O
 : i	-19.5%
Cc1nc(C(=O)NCCC(C)C)sc1C1(C)CC(c2ccccc2)=NO1 (configuration not stated)
 : 15.1%	6.6%
COC(=O)NCC(c1cccnc1)N1CCN(c2ccccc2OC)CC1 (configuration not stated)
 : /	-19.7%

Following part.
Results follow in this order: VACV mCherry inh	VACV Venus inh
CC(=O)Nc1cccc(-c2ccnc3c2CC(C(=O)Nc2ccc4c(c2)OCO4)O3)c1 (configuration not stated)
 : ?	?
COc1ccccc1N1CCN(C(=O)CSc2nc(-c3ccc(C(C)C)cc3)no2)CC1
 : ?	-28.7%
O=C(N/N=C/c1ccc2c(c1)OCO2)c1ccc(NC(=O)c2ccc(F)cc2)cc1
 : ?	-9.4%
COc1ccc(-c2c3c(cc(C)[n+]2[O-])oc2ccc(OC)cc23)cc1
 : -10.2%	-25.0%
Cc1ccc(-c2nnc(-c3cccc(Br)c3)o2)cc1
 : -7.1%	1.5%
O=C(NNc1cccc(Cl)n1)C(F)(F)F
 : -7.3%	-1.3%
O=C(CCS(=O)(=O)c1ccc(Cl)cc1)NCCc1c[nH]c2ccccc12
 : ?	-26.1%
C=CCn1c(C)cc(C(=O)CN2C(=O)c3ccccc3S2(=O)=O)c1C
 : i	-22.0%
Cc1nc(-c2cccc(S(=O)(=O)N3CCOCC3)c2)cs1
 : ?	-5.1%
COc1cccc(-c2nc(SCc3cccc(Br)c3)n3[nH]c(=O)cc3n2)c1
 : -2.5%	6.1%
Cc1c(Cl)c(-c2n[nH]c(=S)n2-c2ccccc2)nn1C
 : -10.5%	-12.3%
CC(=O)c1cccc(-c2ccnc3c2CC(C(=O)NCc2cccs2)O3)c1 (configuration not stated)
 : -2.4%	-23.2%
O=c1c2ccccc2nc2n1CCC2
 : -7.6%	-2.2%
CCOc1ccc(NS(=O)(=O)c2ccc3[nH]cc(C(=O)N4CCCCCC4)c(=O)c3c2)cc1
 : -0.7%	2.7%
O=C(c1ccco1)N(Cc1nc2ccccc2c(=O)[nH]1)C1CCCC1
 : -18.7%	?
COc1ccc2c(O)c(-c3c(C)cc(C)cc3C)c(=O)[nH]c2c1
 : -16.6%	3.9%
O=C(NC(=S)Nc1ccc(Br)cn1)c1cncc(Br)c1
 : i	-9.9%
O=c1c2sccc2n(Cc2cccc(F)c2)c(=O)n1-c1ccc(F)cc1
 : -15.9%	-9.2%
COc1cc(OC)c(N(C)C(=O)c2sc3nc4n(c(=O)c3c2C)CCCCC4)cc1Cl
 : -6.5%	-8.6%
CN(C(=O)Cn1c(=O)n(CCCS(=O)(=O)C2CCCCC2)c(=O)c2ccccc21)c1ccccc1
 : -10.6%	-5.3%
CCCCn1nnnc1C(c1cc2ccccc2o1)N(C)Cc1ccc(Cl)cc1 (configuration not stated)
 : i	5.0%
CC(C)(CCC(=S)N1CCOCC1)c1ccccc1
 : i	-6.7%
CCCCNC(=O)c1ccc2nc(CC)c(N(CCC(C)C)CCN(C)C)n2c1
 : 24.8%	-6.5%
CCCN(CCC)CCCNC(=O)CNC(=O)c1nn(-c2ccc(OC)cc2)c(=O)c2ccccc12
 : -2.6%	-4.0%
CCOC(=O)c1c(C)[nH]c(C)c1S(=O)(=O)N1CCCC(C(=O)Nc2cccc(CC)c2)C1 (configuration not stated)
 : -16.7%	-6.2%
CC(C)c1ccc(NC(=O)C2C3C=CC4(O3)C2C(=O)N(CCCN2CCCCC2)C4C(=O)NC2CCCCC2)cc1 (configuration not stated)
 : 6.8%	-2.7%
CCOc1ccccc1NC(=O)C1CCN(C(=O)C2CC(=O)N(c3ccc(C)cc3)C2)CC1 (configuration not stated)
 : -7.3%	1.4%
CCCCSC1=C(C#N)C(c2ccccc2C)CC(=O)N1 (configuration not stated)
 : i	-11.6%
Cc1c(N(C(=O)Cc2cccs2)C2(C(=O)NC3CCCC3)CCCCC2)c(=O)n(-c2ccccc2)n1C
 : -7.7%	-4.3%
Oc1ccc(C2C(c3ccccc3)=NN=C(c3ccc(Cl)cc3)N2O)c(O)c1 (configuration not stated)
 : i	3.5%

(next part)
Results follow in this order: VACV mCherry inh	VACV Venus inh
O=C(Nc1ccc(O)c(-c2nc3ccccc3o2)c1)C1(c2ccc(Br)cc2)CCCC1
 : -16.5%	0.1%
CNC(=O)CCn1nc(-c2ccccc2)c2ccccc2c1=O
 : -23.6%	?
Cc1ccc(NC(=O)CN(C)C(=O)CSc2nncn2C)cc1
 : /	?
CC(=O)OCC(=O)NCC(=O)c1c[nH]c2ccccc12
 : -6.2%	-7.4%
CCN(CC(=O)Nc1c(F)cccc1F)C(=O)c1c(-c2ccccc2Cl)noc1C
 : -2.8%	-2.8%
CNC(=O)COc1ccccc1C(=O)Nc1ccccc1
 : 0.2%	-8.9%
Cn1cc(CN(C(=O)Nc2ccc(Cl)c(Cl)c2)C2CCCCC2)c2ccccc21
 : -28.0%	-10.5%
CC(C)CNC(=O)CSc1nc2nn(-c3ccccc3)c(=O)c-2c2n1CCCCC2
 : 3.4%	-2.7%
C=CCC1NS(=O)(=O)OC(COC)C1C (configuration not stated)
 : i	-14.2%
O=C(O)c1ccccc1C(=O)c1ccc2c(c1)CCC2
 : -7.0%	-18.1%
O=C(NCCC1=CCCCC1)c1ccc2c(=O)n3nc(Nc4ccccc4)sc3nc2c1
 : ?	?
Cc1ccsc1/C=N/NC(=O)CNC(=O)c1cccc([N+](=O)[O-])c1C
 : -18.2%	-14.1%
CC(C)CCNCC(O)CON=C1c2ccccc2-c2ccccc21 (configuration not stated)
 : ?	?
Cc1cc(N2CCOCC2)nc2cc(O)ccc12
 : i	-8.0%
CCc1ccc(NS(=O)(=O)c2ccc3[nH]c(=O)[nH]c3c2)cc1
 : i	-10.6%
C=CCn1c(-c2ccc(N)cc2)nc2ccccc21
 : -16.1%	-4.4%
Cc1cc(C)c2c(=O)cc(C(=O)Nc3ccc(S(=O)(=O)N(C)Cc4ccccc4)cc3)oc2c1
 : 18.3%	-0.5%
CC(OC(=O)c1cc(=O)c2cc(Cl)ccc2o1)C(=O)N1CCCC1 (configuration not stated)
 : -17.6%	-1.8%
CCOc1ccccc1CN(CCc1ccc2c(c1)OCO2)Cc1cc(OC)c(OC)cc1OC
 : -5.6%[7.34 µM]	-14.0%[7.34 µM]
O=C(CCCN1C(=O)c2cccnc2C1=O)N1CC(=O)N(CCc2ccccc2)C(=O)C1
 : -3.8%	-7.2%

High-throughput results deposited in PubChem by National Center for Advancing Translational Sciences (NCATS).
